# GLA inh pH 4.5: qHTS Assay for Inhibitors of Human alpha-Galactosidase at pH 4.5. Alpha-galactosidase A (Homo sapiens), P06280. purified enzyme, 4-MU-alpha-Gal fluorescence, pH 4.5. activity change, negative = inhibition, % at 105 µM. 230,000 tested, under 10 active; inconclusive = small, poorly fitted or top-dose-only inhibition, or a rising curve; inactive = flat fitted curve, though single readings scatter; no compound was filed as active;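 also: 0% = full activity with enzyme and -100% = basal without enzyme; dose as in the result columns while the protocol names 77 µM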
# Target sequence (P06280 whole entry, looked up): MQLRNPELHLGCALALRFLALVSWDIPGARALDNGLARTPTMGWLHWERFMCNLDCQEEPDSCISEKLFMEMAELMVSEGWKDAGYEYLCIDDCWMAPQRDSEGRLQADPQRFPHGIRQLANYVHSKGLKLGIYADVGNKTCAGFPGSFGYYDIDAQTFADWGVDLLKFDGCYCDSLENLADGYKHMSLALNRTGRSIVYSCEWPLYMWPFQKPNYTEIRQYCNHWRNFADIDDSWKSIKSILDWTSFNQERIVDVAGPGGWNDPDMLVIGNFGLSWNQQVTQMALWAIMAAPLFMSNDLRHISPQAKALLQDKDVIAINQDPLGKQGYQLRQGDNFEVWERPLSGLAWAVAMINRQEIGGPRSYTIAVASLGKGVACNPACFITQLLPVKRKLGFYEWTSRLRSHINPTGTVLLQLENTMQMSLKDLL
# miR-21 FLuc: qHTS Assay for Modulators of miRNAs and/orActivators of miR-21; HeLa miR-21 FLuc reporter, luciferase, 48 h; Potency, µM (doses to about 38.3 µM), for the others: at the highest dose reporter change, positive = more light; 340,000 tested, under 10 active; active = well fitted rising curve with a large enough effect; inconclusive = small, poorly fitted or top-dose-only effect; inactive = no such curve, though single readings can be large or run the other way;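 also: % of control where 0% means no effect; miR-21 action dims this reporter so a rising signal means less miR-21 action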
#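 Luminescence from a firefly luciferase reporter carrying a miR-21 binding site downstream, stably expressed under a CMV promoter in HeLa cells that make miR-21 endogenously, reports miRNA modulation after 48 h compound exposure up to approximately 40uM final.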
# Rango-impB inh: qHTS Assay for Inhibitors of Rango (Ran-regulated importin-beta cargo) - Importin beta complex formation | Importin subunit beta-1 (Homo sapiens), Q14974 | Rango CFP/YFP FRET sensor + importin beta, 45 min | Potency, µM (top dose mostly 92.2 µM), for inactives: at the top dose inhibition of complex formation | 340,000 tested, 0.031% active | AID 540263, 2011; active = rising FRET ratio curve, often small or poorly fitted; inconclusive = mostly compound fluorescence or quenching in the first reads; inactive = flat curves in all reads;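 also: potency is read from the fitted curve at half-maximal effect; 0% = DMSO wells and 100% = buffer wells lacking importin beta; nearly all actives have a fitted effect of over 15% in size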
#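 FRET biosensor Rango (snurportin 1 IBB between N-terminal EYFP and C-terminal Cerulean), 50 nM in PBS/1 mM DTT/0.02% Tween-20/0.1% BSA, preincubated 5 min RT with compound; 0.125 microM importin beta added, 45 min RT, CFP/YFP FRET ratio read.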
# Rango release inh: qHTS Assay for Inhibitors of RanGTP induced Rango (Ran-regulated importin-beta cargo) - Importin beta complex dissociation; Snurportin-1 (Homo sapiens) + GTP-binding nuclear protein Ran (Homo sapiens) + Importin …; Biochemical FRET Rango-importin beta, RanGTP-induced dissociation; Potency, µM (highest dose often 46.1 µM), without a hit: top-dose activity change, negative = inhibition; 340,000 tested, 0.071% active; AID 540253, 2011; active means falling FRET ratio curve, often poorly fitted, with flat reads before Ran was added; inconclusive means other falling curves, or compound fluorescence or quenching; inactive means flat or rising ratio curve;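 also: potency is read from the fitted curve at half-maximal effect; % of control where 0% means no effect; nearly all actives have a fitted effect of over 45% in size; -100% = wells without RanGTP and RCC1; the record marks most hits as doubtful in a second field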
#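 Rango/importin beta premix (0.1/0.25 uM final), PBS + 1 mM DTT + 0.02% Tween-20 + 0.1% BSA; cpd 5 min RT; FRET pre-read; + RanGTP-RCC1 (0.6 uM Ran, 2 mM GTP, 0.2 uM RCC1); 45 min RT; FRET post-read, ex 430, em 486/530 nm.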
# Active calls of the source: *; ? = inconclusive; . = not tested or not shown; & = joins results of further samples.
Compound	GLA inh pH 4.5	Rango-impB inh	Rango release inh	miR-21 FLuc
CC1(C)CC(CCN(Cc2ccccc2)C(=O)c2ccco2)(c2ccccc2)CCO1 (stereo not drawn)	?	-0.8%	-4.4%	20.8%
O=C(CSc1nnc(CNC(=O)c2ccccc2F)o1)c1ccc(Cl)cc1	3.2	1.4%	1.5%	0.4%
Cc1nnc(Nc2ccc3c(c2)ncn3C)c2ccccc12	5.7	3.0%	4.0%	-38.4%
Cc1ccc(C(C)C)c(OCC(=O)NNC(=O)Nc2ccccc2)c1	.	-0.1%	-2.4%	.
CC(C)(C)NC(=O)NC(=O)CSc1nnc(COc2ccccc2Cl)o1	1.1	-3.5%	0.0%	-6.2%
CCN1CCN(c2ncnc3c2cnn3-c2ccc(C)cc2C)CC1	3.0	0.7%	0.1%	-6.3%
Cc1ccc(-n2c(-c3cnccn3)n[nH]c2=S)c(Br)c1	-2.2	-0.7%	7.3%	-1.0%
CON(C)C(=O)CCC1CCCN1C(=O)OC(C)(C)C (stereo not drawn)	.	2.7%	-6.9%	.
COc1cc(NC(=O)c2cccc([N+](=O)[O-])c2)ccc1NC(=O)c1cc2ccccc2o1	.	5.7%	14.7%	-0.8%
Cc1oc(-c2ccccc2)cc1C(=O)NCc1ccncc1	-8.6	0.0%	-2.7%	-2.6%
COc1ccc2c(c1)nc(NCCCO)n2Cc1ccccc1	-5.6	-2.9%	7.5%	-4.9%
CCOc1ccccc1N(CC(=O)Nc1cccc(OC)c1)S(=O)(=O)c1ccccc1	.	-0.7%	-9.9%	1.4%
Fc1ccc(COc2ccc(-c3nnco3)cc2)c(Cl)c1	.	?	-1.6%	-37.9%
CN(C(=O)c1ccc(NC(=O)Cc2cccc(NC(=O)C3CCCN(C(=O)C4CCCC4)C3)c2)cc1)C1CCCC1 (stereo not drawn)	.	-1.1%	9.1%	.
COc1cc(C)nc(Nc2nc(C)c(C(C)=O)s2)n1	-6.2	-2.6%	10.1%	6.0%
C=CCC(CC=C)(C(N)=O)c1ccccc1	2.8	1.7%	7.1%	0.4%
CCCC(O)(CCC)C(=O)NN(C(=O)CCl)c1ccccc1	-7.1	-2.3%	-6.5%	7.8%
Cc1ccc(NC(=O)c2cc(-c3cccs3)on2)cc1C	3.6	-4.2%	0.5%	-49.7%&-48.1%
Cc1nc(C(=O)Nc2ccc(Cl)cc2)nn1-c1ccc([N+](=O)[O-])cc1	-12.2	-3.7%	0.4%	-4.5%
CN(CC(=O)Nc1cccc(F)c1)C(=O)c1cccnc1Sc1ccccc1	.	-0.1%	8.5%	.
CSCCC(NS(=O)(=O)c1ccc(Cl)cc1)C(=O)OCC(=O)NC12CC3CC(CC(C3)C1)C2 (stereo not drawn)	7.0	-5.3%	-3.4%	-1.1%
CSCc1cc(N2CCOCC2)nc(-c2ccccc2)n1	2.5	-1.7%	12.7%	2.5%
O=C(CNc1ccc2ccccc2c1)N/N=C/C=C/c1cccc([N+](=O)[O-])c1	0.4	0.1%	26.4%	5.4%
N=C1/C(=C\c2ccc(OC(=O)c3ccco3)cc2)C(=O)N=C2SC(N3CCCCC3)=NN12	.	?	-6.7%	-10.0%
O=C(CCC1CCCC1)Nc1cc(Cl)ccc1N1CCOCC1	.	0.4%	17.1%	.
COc1ccc(CCN(C(=O)c2ccc(F)cc2)C2=CC3CCC(C2)N3C)cc1OC (stereo not drawn)	0.5	-0.1%	19.7%	-3.3%
c1ccc(-c2nnc(-c3ccco3)n2-c2ccccc2)cc1	-1.9	1.5%	-7.2%	-1.7%
CC(Sc1nncn1C)C(=O)Nc1ccc(N2CCCCC2)cc1 (stereo not drawn)	.	5.4%	36.8%	.
CCCOc1ccc(C(=O)Nc2ccc(S(=O)(=O)NC3=NCCCCC3)cc2)cc1	.	0.0%	-4.2%	.
Cc1ccc(NC(=O)C2CC2C)c(Cl)c1 (stereo not drawn)	6.2	-0.1%	9.1%	-15.5%
COC(=O)/C(=C\c1cccnc1)NC(=O)c1ccc(OCc2ccccc2)cc1	.	2.1%	5.7%	5.3%
O=C(CNC(=O)c1ccc(Cl)cc1)NCCCn1ccnc1	7.9	-0.8%	-2.5%	-0.3%
CCOC(=O)C1CCCN(C(=O)c2ccc(S(=O)(=O)N3CCOCC3)cc2)C1 (stereo not drawn)	.	1.2%	-0.8%	.
Cn1c(C(=O)O)cc2c(=O)n3ccccc3nc21	?	?	?	-0.4%
CCOc1ccc(CN2CCNC(=O)C2CC(=O)NCCCn2ccnc2)cc1 (stereo not drawn)	1.7	-1.5%	16.0%	-0.4%
O=C1N=C2SCCN2/C1=C\c1ccc(Cl)cc1	1.1	?	-4.1%	-0.3%
Cc1nn(Cc2ccccc2)c(Cl)c1C(=O)NCc1ccc(C)n1C	2.5	3.6%	0.8%	-5.0%
CCOc1ccc(-n2c(=S)sc3c(=O)[nH]c(SCC(=O)NC(C)CC)nc32)cc1 (stereo not drawn)	-0.1	-2.3%	17.3%	-0.4%
NNC(=O)c1nn(-c2ccc(Cl)cc2)ccc1=O	-12.2	0.5%	3.6%	5.4%
O=C1NC2(CCCCC2)C(=O)N1CC(=O)N(Cc1ccccc1)c1ccccc1	.	0.6%	-14.7%	1.4%
Cc1cc(C)c(OCCCCCn2ccnc2)c(C)c1	.	0.6%	17.8%	9.8%
COc1ccc(CNC(=O)CN2CCN(S(=O)(=O)c3cc(Br)ccc3Br)CC2)cc1OC	.	0.6%	7.7%	.
O=C(c1ccc(SCc2ccco2)c([N+](=O)[O-])c1)N1CCOCC1	3.7	8.4%	-9.0%	-9.8%
COc1ccc(OC)c2[nH]c(=O)c(CCNC(=O)c3ccc(Br)o3)cc12	5.5	-8.4%	-1.0%	-8.0%
CCN(CC)C(=O)Cn1cc(C(=O)C(=O)NCc2ccco2)c2ccccc21	-6.4	-0.9%	-6.4%	-3.6%
CCc1ccc(-c2nn[nH]n2)cc1	0.0	-2.4%	-1.5%	-13.7%
Cc1cc(C)c(C)c(S(=O)(=O)N2CCN(C(=O)C3CSC4(C)CCC(=O)N34)CC2)c1C (stereo not drawn)	.	1.8%	-9.0%	.
CCOC(=O)CNC(=O)CSc1nc2cccnc2n1C	-12.5	1.8%	2.4%	-1.3%
COCCCn1c(=O)c2ccccc2n(Cc2ccccc2C)c1=O	.	0.1%	8.1%	-12.6%
CCCCc1nnc(NC(=O)C2CCN(c3ncnc4sc(C)c(C)c34)CC2)s1	.	-3.9%	4.4%	.
Cc1ccccc1NC(=O)COc1cccc2c1CCNC2=O	.	-0.5%	24.9%	.
COC(=O)c1sc(N)c(C(=O)OC)c1CSc1nc2sc3c(c2c(=O)n1C)CCC3	5.0	?	1.7%	-9.1%
CC(C)n1c(SCc2ccccc2F)nc2c1c(=O)n(C)c(=O)n2C	-1.9	-0.4%	-3.4%	-0.3%
COc1cc(C2C(C#N)=C(SC)NC3=C2C(=O)CCC3)ccc1O (stereo not drawn)	0.6	-0.1%	1.3%	7.2%
OCC(O)/C=N/Nc1nc(Nc2ccccc2)nc(Nc2ccccc2)n1 (stereo not drawn)	.	7.2%	2.2%	-14.1%
O=C(N1CCN(c2ccccc2)CC1)C(F)(F)C(F)F	1.9	-1.9%	-15.3%	-10.9%

# Remaining list, next part.
Compound	GLA inh pH 4.5	Rango-impB inh	Rango release inh	miR-21 FLuc
CCOC(=O)c1ccc(NC(=O)CSCCC(=O)O)cc1	-0.7	5.7%	1.2%	0.2%
Cc1cc(C)cc(N2C(=O)c3nccnc3C2=O)c1	7.4	1.0%	28.4%	0.8%
C#CCN1C(=O)C(O)(CC(=O)c2ccc3c(c2)OCCO3)c2ccccc21 (stereo not drawn)	-8.7	-1.6%	-2.5%	-9.3%
CC(C)C(=O)Nc1nnc(S(=O)(=O)N2CCCCCC2)s1	.	-2.7%	0.3%	-0.1%&-1.6%
CN(CC(=O)NCc1cccnc1)S(=O)(=O)c1ccc(F)cc1	.	9.5%	-8.4%	5.5%
Cc1cc(Cl)nc(SCC(=O)c2ccccc2)n1	.	-0.3%	-0.4%	-6.8%
N=c1sccn1CC(=O)Nc1ccc(Cl)c(S(=O)(=O)N2CCOCC2)c1	-4.0	-0.9%	-15.5%	-2.6%
COC(=O)/C(=C1\Oc2ccc(C(C)(C)C)cc2S1)C(F)(F)F	-2.5	-3.5%	4.1%	-17.1%

# Complete entries, quoted from the list.
# CN(CC(=O)NCc1cccnc1)S(=O)(=O)c1ccc(F)cc1 as listed: GLA inh pH 4.5: .; Rango-impB inh: 9.5%; Rango release inh: -8.4%; miR-21 FLuc: 5.5%
# CC(C)C(=O)Nc1nnc(S(=O)(=O)N2CCCCCC2)s1 as listed: GLA inh pH 4.5: .; Rango-impB inh: -2.7%; Rango release inh: 0.3%; miR-21 FLuc: -0.1%&-1.6%

# (list continues)
Compound	GLA inh pH 4.5	Rango-impB inh	Rango release inh	miR-21 FLuc
COc1cccc(NC(=O)CSc2nc3ccccc3c3nc4ccccc4n23)c1	4.3	-2.0%	4.1%	-0.2%
O=C(Nc1cccc(O)c1)c1cc(-c2ccc3c(c2)OCO3)on1	.	-0.9%	8.0%	29.7%
COc1ccc(NC(C)C(=O)N/N=C/c2c(O)ccc3ccccc23)cc1 (stereo not drawn)	.	?	-20.5%	-2.5%
NC(=O)C1CCN(C(=O)c2ccc3nc(-c4ccccc4)c(-c4ccccc4)nc3c2)CC1	.	-0.4%	19.0%	11.2%
COc1ccc(COC(=O)c2ccc(N3CCCC3=O)cc2)cc1F	4.7	-2.1%	0.0%	-11.2%
COc1cccc(NS(=O)(=O)c2ccc3[nH]cc(C(=O)NCCCOC(C)C)c(=O)c3c2)c1	.	-0.9%	-4.6%	8.8%
COc1ccc(OCC(O)CNc2ccc(Br)cc2)cc1 (stereo not drawn)	-17.8	0.1%	4.4%	-3.0%
COc1cccc(NC(=O)C2CCN(S(=O)(=O)c3ccc4[nH]c(=O)ccc4c3)CC2)c1	.	5.3%	-11.7%	-1.0%
CC(NC(=O)c1ccncc1)c1ccc(Br)cc1 (stereo not drawn)	.	-1.5%	-14.6%	.
COc1ccc(CCNC(=O)Cc2ccc3c(c2)OCO3)cc1OC	2.3	1.4%	-15.2%	-7.8%
c1cncc(CN=C2Nc3ccccc3CS2)c1	6.5	3.7%	22.1%	-22.3%
CCCCCCCC(=O)N/N=C/c1ccc([N+](=O)[O-])o1	-4.4	?	9.8%	-8.2%
CC(=O)c1ccc(OCC(O)CN2CC(C)OC(C)C2)cc1 (stereo not drawn)	-0.5	-0.8%	1.2%	-2.0%
O=C(O)/C=C\C(=O)Nc1ccccc1C(=O)NCc1ccccc1	1.9	-0.2%	-0.6%	-4.7%
Cc1ccc(S(=O)(=O)NCC(=O)OC(C(=O)c2ccccc2)c2ccccc2)cc1 (stereo not drawn)	0.8	5.7%	20.8%	-4.0%
C[C@@H](NC(=O)c1ncn(C)c1C(=O)N[C@H](C)c1ccccc1)c1ccccc1	.	0.2%	-6.0%	.
COC(=O)c1ccc(NC(=S)NCCCn2ccnc2)cc1	4.2	-0.2%	-1.0%	-0.6%
CC(=O)NCCC(=O)Nc1nc(C)c(Cc2ccc3c(c2)OCO3)s1	1.4	2.4%	0.4%	-23.2%
Cc1nnc(NCc2cccc(Cl)c2)c2ccccc12	.	3.2%	0.5%	-5.4%
CC(=O)Nc1sc2c(c1CN1CCCC1)CCCC2	-1.7	-2.0%	1.4%	-1.6%
CC1CCCN(S(=O)(=O)c2cc3c4c(c2)CCN4C(=O)CC3)C1 (stereo not drawn)	.	7.3%	1.8%	.
CCc1ccc(S(=O)(=O)NC2CC(C)(C)NC(C)(C)C2)cc1	.	-1.7%	-1.9%	-7.4%

# Source: PubChem (National Center for Advancing Translational Sciences (NCATS))

# Some of the compounds tested; count on the stated rates, not on these rows.
